Screening data: PubChem, several laboratories
RecA intein inh: Mtb RecA intein splicing inhibitors, primary screen, biochemical, fluorescence, HTS | AID 2221, 2009 | 290,000 tested, 0.75% active | cell-free RecA intein splicing | inhibition, %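 (about 9 µM by stock and volumes)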; in the data active = inhibition above about 30%; inconclusive = no clear call, values can overlap the other calls;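 also: 0% = vehicle wells and 100% = reference inhibitor control wells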
Target sequence (P9WHJ3 whole entry, looked up): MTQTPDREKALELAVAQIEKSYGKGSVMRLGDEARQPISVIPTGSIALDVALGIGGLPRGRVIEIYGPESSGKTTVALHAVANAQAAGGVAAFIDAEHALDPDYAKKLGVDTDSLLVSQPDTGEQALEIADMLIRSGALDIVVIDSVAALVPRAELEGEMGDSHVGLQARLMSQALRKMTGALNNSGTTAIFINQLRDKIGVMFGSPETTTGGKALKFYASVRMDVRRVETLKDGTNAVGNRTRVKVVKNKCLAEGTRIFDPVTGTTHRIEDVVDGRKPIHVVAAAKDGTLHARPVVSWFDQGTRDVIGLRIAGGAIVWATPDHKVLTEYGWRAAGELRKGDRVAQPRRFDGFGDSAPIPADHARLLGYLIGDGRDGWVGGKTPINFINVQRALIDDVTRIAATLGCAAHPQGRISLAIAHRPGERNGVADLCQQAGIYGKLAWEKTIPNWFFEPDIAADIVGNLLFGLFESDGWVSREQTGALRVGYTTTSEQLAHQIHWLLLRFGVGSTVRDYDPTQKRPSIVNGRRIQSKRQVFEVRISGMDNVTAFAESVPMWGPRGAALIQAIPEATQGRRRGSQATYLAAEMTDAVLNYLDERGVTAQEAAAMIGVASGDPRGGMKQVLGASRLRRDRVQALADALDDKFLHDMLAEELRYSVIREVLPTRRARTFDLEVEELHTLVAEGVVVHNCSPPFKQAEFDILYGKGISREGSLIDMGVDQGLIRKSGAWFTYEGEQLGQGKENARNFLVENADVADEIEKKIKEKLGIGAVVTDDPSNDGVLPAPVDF
Arbovirus anti: antivirals against arbovirus infection, primary screen, cell-based, full library, 10K replicate subset. arbovirus infection cell-based antiviral screen. inhibition, % at 10 µM. 200,000 tested, 0.37% active;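 active = inhibition from about 30%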;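 also: bluetongue infection of BSR cells; cell survival read as ATP light after 72 h; 0% = infected wells without compound and 100% = uninfected wells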
YopH inh: YopH tyrosine phosphatase inhibitors, primary screen, biochemical, fluorescence Ex485/Em525; AID 898, 2007; YopH tyrosine phosphatase [Yersinia enterocolitica]; 140,000 tested, 0.16% active; inhibition, %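 (about 10 µM by stock and volumes)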;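 active = inhibition of 50% or more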;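 also: controls were vehicle for no effect and minimum signal wells for full effect; inactives centre near -20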
Mtb bLac sens: beta-lactam sensitization of Mtb H37Rv, H37Rv; M. tuberculosis H37Rv growth with meropenem, percent inhibition; hits of this screen are not shown here; inhibition, % at 25 µM; 330,000 tested, 0.27% active;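 active = about 74% or more and at least 40 points above the plate without the antibiotic, then above 30% in a dose series; inconclusive = first-round hits that could not be retested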;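 also: growth measured after seven days incubation then overnight dye step; 0% = bacteria only wells and 100% = bacteria with antibiotic; twin plates without the antibiotic show which effects depend on it; some results filed as inactive read as strong as hits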
Mtb growth: M. tuberculosis H37Rv growth inhibitors, H37Rv strain (AID 1626). 220,000 tested, 0.95% active. inhibition, % at 10 µM; hits with a dose series show IC50 in µM. M. tuberculosis H37Rv growth inhibition; higher % means a stronger effect;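 active = confirmed in a dose series; inconclusive = inhibition above 80% but not taken into the dose series; inactive = below 80% or under 30% at every dose of the series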;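 also: bacteria incubated seven days before Alamar blue readout; 0% = bacteria only wells and 100% = bacteria with antibiotic wells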
Arbovirus anti repeat: recorded beside Arbovirus anti, whose call it bears; inhibition, %; measured here: 10K subset replicate screen; many hits read low in the repeat;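 first of two repeat runs on a subset; 0% = infected and 100% = uninfected wells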
* = called active by the depositor; ? = inconclusive; . = no result given. A portion of the library, so the mix of outcomes need not match the whole.

The opening 5 records, ahead of the listing:
SMILES | RecA intein inh | Arbovirus anti | YopH inh | Mtb bLac sens | Mtb growth | others
NC(=O)C1(c2ccccc2)CCCN1C(=O)c1ccc(Br)cc1 (centres undefined) | 1.6 | 26 | . | -3 | 5%
COc1ccc(S(=O)(=O)n2oc(=O)cc2-c2ccccc2)cc1OC | 1.9 | 3 | -7 | 8 | -2%
Cc1ccc(/C=C2\CCC(C3CCCC3)C2=O)cc1 (centres undefined) | 3.8 | 2 | -36 | 0 | 4%
Cc1ccccc1OCc1nc2ccccc2c(=O)n1/N=C/c1cccc([N+](=O)[O-])c1 | -0.8 | 2 | -11 | 2 | 15%
O=C(NCc1ccco1)c1cc2n(n1)C(C(F)(F)F)CC(c1ccc(F)cc1)N2 (centres undefined) | -6.6 | -3 | -42 | 91 | 42%

Main list (from the top)
SMILES | RecA intein inh | Arbovirus anti | YopH inh | Mtb bLac sens | Mtb growth | others
NC(=O)C1(c2ccccc2)CCCN1C(=O)c1ccc(Br)cc1 (centres undefined) | 1.6 | 26 | . | -3 | 5%
COc1ccc(S(=O)(=O)n2oc(=O)cc2-c2ccccc2)cc1OC | 1.9 | 3 | -7 | 8 | -2%
Cc1ccc(/C=C2\CCC(C3CCCC3)C2=O)cc1 (centres undefined) | 3.8 | 2 | -36 | 0 | 4%
Cc1ccccc1OCc1nc2ccccc2c(=O)n1/N=C/c1cccc([N+](=O)[O-])c1 | -0.8 | 2 | -11 | 2 | 15%
O=C(NCc1ccco1)c1cc2n(n1)C(C(F)(F)F)CC(c1ccc(F)cc1)N2 (centres undefined) | -6.6 | -3 | -42 | 91 | 42%
Cc1cc(C(=O)OCn2nnc3ccccc3c2=O)c(C)o1 | -3.6 | 4 | -28 | -1 | 0%
CCOc1cc(CNc2ccccc2)cc(Br)c1OCc1ccc(F)cc1 | -1.3 | 7 | -28 | 40 | -10%
CC(C)CC(OC(=O)c1ccc(Cl)nc1)C(=O)NC1CCCC1 (centres undefined) | 0.2 | . | . | 0 | .
Cn1c(=O)n(C)c2cc(S(=O)(=O)NCCc3ccccc3)ccc21 | -4.0 | 0 | -26 | -14 | -6%
COc1cccc(-c2nc(CS(=O)(=O)CC(=O)NCCc3ccc(C)cc3)c(C)o2)c1 | 1.3 | . | . | -3 | .
Cc1nc2cc(NCc3cccs3)ccc2n1C | . | -7 | . | -4 | .
Cc1nn(-c2ccccc2)c(NC(=O)c2cccs2)c(-c2ccc(Cl)cc2)c1=O | 0.2 | -2 | -17 | -10 | 3%
CCOC(=O)c1ccccc1NC(=O)C1CC(=O)N(C2CCCCC2)C1 (centres undefined) | 1.2 | . | . | -11 | .
S=c1[nH]nc(Cc2cccc3ccccc23)n1-c1ccccc1 | 2.4 | 2 | -18 | -8 | 7%
COc1ccccc1NC(=O)CS(=O)(=O)c1cn(CC(=O)N(C(C)C)C(C)C)c2ccccc12 | 0.7 | . | . | -1 | .
N#CC1(c2ccccc2)CCCN1C(=O)c1ccccc1Br (centres undefined) | -0.6 | -6 | -1 | 0 | 9%
CCCCCn1nc(C)c(/C=N/NC(=O)c2ccoc2C)c1C | 2.2 | -3 | -25 | -5 | -9%
O/N=C(\COc1ccccc1O)c1ccccc1 | 4.3 | 10 | -56 | 6 | 2%
CNC(=O)c1ncnnc1N(C)C(=O)NCc1ccccc1 | -1.3 | 3 | -53 | -3 | 0%
COc1ccc(OC)c(NC(=O)C(=O)NNC(=O)COc2ccc(Br)cc2C)c1 | -3.2 | -5 | . | 81 | ?
O=C(Nc1ccccc1C(=O)NCc1ccc(Cl)cc1)c1ccco1 | 3.1 | 5 | -26 | 18 | .
COc1ccc(OC)c(C2CC(c3ccc(NS(C)(=O)=O)cc3)=NN2C(=O)c2ccccc2)c1 (centres undefined) | 2.7 | -9 | . | -7 | 5%
Cn1c(=O)[nH]c(=O)c2c1nc(Br)n2CCCCSc1nc2ccccc2o1 | -0.8 | -1 | -17 | ? | 2%
COc1ccc(OC)c(NC(=O)CS(=O)(=O)c2cn(CC(=O)N3CCOCC3)c3ccccc23)c1 | -5.6 | . | . | -1 | .
CCc1ccccc1NC(=O)Nc1ccc2c(c1)OCO2 | -5.3 | 0 | . | -3 | 1%
C=CCn1c(O)c(N=NC(=O)CNC(=O)/C=C/c2ccco2)c2ccccc21 | 3.4 | -3 | 2 | 2 | -15%
O=C(NCc1cccc(Cl)c1)C1CCC(=O)N(CC2CCCCC2)C1 (centres undefined) | 0.6 | . | . | 5 | .
COc1ccc(-n2c(Cc3cc(=O)[nH]c(=O)[nH]3)nnc2SCC(=O)NC2CCCC2)cc1 | -1.2 | 4 | -22 | 7 | -6% | Arbovirus anti repeat=1
COc1ccc(C(=O)N2CCNC(=O)C2CC(=O)Nc2cccc(Cl)c2Cl)cc1 (centres undefined) | 2.9 | . | . | ? | .
O=C(COC(=O)C1CC1)Nc1ncc(Cl)cc1Cl | 5.1 | . | . | 1 | .
COc1ccc(OCCCn2ccnc2)cc1 | -1.0 | . | . | 8 | .
C/C(Cc1ccccc1)=N\NC(=O)CNC(=O)Cc1ccc(Cl)cc1 | -1.9 | . | . | -8 | -13%
O=C1NC2(CCCCC2)C(=O)N1c1cccc(Cl)c1 | -0.7 | . | . | -7 | .
CC(=O)Nc1ccc(SCCC2CCCCN2C)cc1 (centres undefined) | -1.9 | . | . | 1 | .
COc1ccc(N2CCN(CC(=O)N3N=CCC3c3ccccc3)CC2)cc1 (centres undefined) | -5.7 | -8 | -4 | -2 | -1%
O=C(NNc1cc(Cl)ccc1Cl)c1c(F)cccc1Cl | 1.4 | . | . | 92 | 13%
CCc1cc2ccc(OC)cc2nc1SCC(=O)NNC(=O)c1ccco1 | -0.1 | -1 | . | -2 | 0%
COc1ccc(CNC(=O)CN2c3ccccc3S(=O)(=O)c3ccccc32)cc1 | -0.1 | . | . | 7 | .
O=C(Nc1cccc(Cl)c1)c1cc(N=Nc2ccc([N+](=O)[O-])cc2Cl)ccc1O | -0.1 | . | . | 10 | 49%
COc1ccc(-c2c([C@H]3[C@H]4C=CC[C@@H](C)[C@@H]4C(=O)N3Cc3ccccc3)ccc3ccccc23)cc1 | 4.9 | . | . | -4 | 16%
Cc1cc(C)n2nc(SCC(=O)c3cc(C)n(CC4CCCO4)c3C)nc2n1 (centres undefined) | -1.5 | 8 | . | -9 | 1%
CCCC(C)NC(=O)COC(=O)c1ccc(Cl)c(S(N)(=O)=O)c1 (centres undefined) | -0.8 | 4 | -5 | 4 | -10%
O=C(Nc1cccc2ncccc12)c1cccnc1 | 0.4 | 3 | -28 | 8 | -10%
O=S1(=O)CC(O)C(Nc2ccc(Cl)cc2)C1 (centres undefined) | -1.2 | 4 | -30 | -3 | 0%
O=C(c1ccco1)N1CCN(Cc2c(Cl)cccc2Cl)CC1 | 3.6 | . | . | 1 | .
COc1ccc(-n2cnnc2SCC(=O)Nc2cc(C)on2)cc1 | 2.9 | -2 | . | -2 | -2%
Nc1nc(SCC(=O)N2CCCC2)[nH]c(=O)c1NC(=O)c1cccs1 | -3.4 | . | . | -9 | -3%
O=C1c2ccccc2-c2c1cccc2C(=O)N1CCN(C(=O)c2ccco2)CC1 | 2.9 | 3 | -19 | 7 | 1%
Cc1cc(Cl)c(OCCCn2cncn2)c(Br)c1 | 3.9 | -8 | -16 | -8 | 11%
CN(CCOc1ccc(Cl)cc1)CC(=O)Nc1ccc(OC(F)(F)F)cc1 | 4.4 | . | . | 5 | .
C=CCn1c(=N)n(CC(=O)c2cccc([N+](=O)[O-])c2)c2ccccc21 | -0.5 | -4 | . | 7 | 0%
O=S(=O)(Nc1ccc(Cl)c(C(F)(F)F)c1)c1cnc[nH]1 | 2.8 | 3 | -13 | 7 | 4%
COc1ccc(CNC(=S)Nc2cccc(F)c2)cc1 | -0.7 | . | . | 8 | .
Cc1cccc(N=Nc2cn[nH]c2-c2ccco2)c1 | 1.0 | -8 | . | 26 | 9%
O=C(Nc1cccc(C(F)(F)F)c1)c1cc[n+]([O-])cc1 | 0.5 | . | . | -3 | .
CCOC(=O)CN1C(=O)N[C@@H](c2ccco2)C(C(C)=O)=C1C | 1.3 | . | . | 2 | 12%
Cc1cc(C)c(S(=O)(=O)N/N=C/c2ccc3c(c2)OCO3)c(C)c1 | 2.8 | . | . | 7 | .
C/C=C\C(=O)Nc1cccc(C2=NOC3(C2)C[C@@H](C(N)=O)N(C(=O)C2(C)CC2)C3)c1 (some centres undefined) | -2.4 | . | . | -6 | -2%
CC(C)c1ccc(/C=N/Nc2ccc(C(=O)O)cc2)cc1 | -0.8 | 10 | -13 | 12 | 7%
O=C(CCc1nc2ccccc2[nH]1)NC1CCCCC1 | 4.3 | 0 | -18 | -3 | 2% | Arbovirus anti repeat=-2
Later entries
SMILES | RecA intein inh | Arbovirus anti | YopH inh | Mtb bLac sens | Mtb growth | others
C=CCOC(=O)C1=C[C@H](c2cn(C(C)=O)c3ccccc23)C[C@H](OCc2ccc(CO)cc2)O1 | 3.0 | 9 | . | -1 | 7%
CCOC(=O)c1sc(Nc2nc3cc4c(cc3s2)OCO4)cc1C | -1.4 | -6 | -30 | 4 | 24%
Cc1csc2ncc(C(=O)NCc3ccccn3)c(=O)n12 | 1.7 | 10 | -18 | 1 | 3% | Arbovirus anti repeat=0
CN1CCN(S(=O)(=O)c2ccc(NC(=S)NC(=O)c3ccccc3)cc2)CC1 | -1.7 | 5 | -20 | 11 | -4%
N#Cc1ccc(COC(=O)c2ccc3c(c2)OCO3)cc1 | 4.0 | . | . | -9 | .
COc1cc(NC(=O)COC(C)=O)cc(OC)c1OC | -6.6 | 4 | . | -1 | -2%
O=C(CCC(=O)Nc1ccc(Cl)cc1)N/N=C/c1ccc2c(c1)OCO2 | -0.2 | . | . | 1 | .
Cc1[nH]nc(N2CCCCC2)c1[N+](=O)[O-] | -0.4 | -1 | 4 | -3 | 5%
O=C(CNC(=O)C1CCCCC1)OCn1nnc2ccccc2c1=O | -5.3 | 2 | . | 2 | 1%
Cc1ccc2nsnc2c1NC(=O)CCc1ccccc1 | -0.1 | 3 | -33 | 18 | 1%
O=C1N(Cc2cccc(Cl)c2)C[C@@H]2C[C@@H](c3ccsc3)N3CCC[C@@]123 | 2.9 | 2 | . | -2 | 2%
CC(=O)NC(C1C(=O)CC(C)(C)CC1=O)(C(F)(F)F)C(F)(F)F | -1.1 | 3 | -18 | -4 | 3%
C/C(CC(=O)NC1CCCCC1)=N\NC(=O)c1ccccc1C | 1.1 | . | . | 6 | .
O=C(c1ccccc1F)N(NC(=O)C(O)(c1ccccc1)c1ccccc1)c1ccccc1 | -0.3 | -11 | -11 | -8 | 12%
CCOc1ccc(S(=O)(=O)N2CCC(C(=O)NC3CC3)CC2)cc1Cl | -0.1 | . | . | 2 | .
O=C(Nc1ccccc1N1CCCCC1)C1CCN(S(=O)(=O)c2cccc(C(F)(F)F)c2)CC1 | 4.0 | . | . | 6 | .
O=C(NCc1cccs1)c1cnc(Cl)c(Cl)c1 | 3.0 | 6 | . | 4 | 6%
COc1cc(/C=C(/NC(C)=O)C(=O)O)cc(Cl)c1OCc1ccc(Br)cc1 | . | . | . | -2 | -7%
Cc1cc(C(=O)Nc2ccccc2Cc2ccccc2)no1 | 1.6 | . | . | 12 | .
Nc1ccc(C2(c3ccc(N)cc3)c3ccccc3C(=O)c3ccccc32)cc1 | 0.1 | . | . | -1 | .

Arranged by molar mass (low to high): 3 of the compounds above.
SMILES | RecA intein inh | Arbovirus anti | YopH inh | Mtb bLac sens | Mtb growth | others
Cc1[nH]nc(N2CCCCC2)c1[N+](=O)[O-] | -0.4 | -1 | 4 | -3 | 5%
CCOC(=O)CN1C(=O)N[C@@H](c2ccco2)C(C(C)=O)=C1C | 1.3 | . | . | 2 | 12%
O=C(NNc1cc(Cl)ccc1Cl)c1c(F)cccc1Cl | 1.4 | . | . | 92 | 13%

The listing picks up, repeating the four entries before the break.
SMILES | RecA intein inh | Arbovirus anti | YopH inh | Mtb bLac sens | Mtb growth | others
O=C(NCc1cccs1)c1cnc(Cl)c(Cl)c1 | 3.0 | 6 | . | 4 | 6%
COc1cc(/C=C(/NC(C)=O)C(=O)O)cc(Cl)c1OCc1ccc(Br)cc1 | . | . | . | -2 | -7%
Cc1cc(C(=O)Nc2ccccc2Cc2ccccc2)no1 | 1.6 | . | . | 12 | .
Nc1ccc(C2(c3ccc(N)cc3)c3ccccc3C(=O)c3ccccc32)cc1 | 0.1 | . | . | -1 | .
C/C(Cl)=C\C[N+](C)(C)CC(=O)OCCc1ccccc1 | 2.6 | . | . | -6 | -7%
COc1ccc(NC(=O)c2ccccc2-c2ccccc2)c(C)c1 | -0.5 | -2 | . | 99 | 53%
COC(=O)c1cccnc1-n1c(=O)c2cccnc2n(Cc2ccc(Cl)cc2)c1=O | 1.0 | 12 | 7 | -10 | 11%
CN(CC(=O)Nc1cccc(F)c1)C(=O)c1ccc(-c2ccc(Cl)cc2)o1 | 8.4 | . | . | 59 | .
